Compound activity as filed in PubChem.
MLL AF4-AF9 inh: MLL-AF4/AF9 protein interaction inhibition. inhibition, % at 10 µM. P42568. AlphaScreen, biotin-AF4 peptide binding to FLAG-AF9. hit rate 0.47% among 350,000. AID 651704;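 active means every replicate reaching a set inhibition limit, whatever the replicate mean, cut at about 25% in these data; inconclusive means mean inhibition reaches that limit but some replicates miss it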;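 further: 0% = plate neutral control median and 100% = total signal loss; the record names both 10 and 1 µM as test concentration; the first replicate is given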
Calb FLC: C. albicans growth modulation with fluconazole; C. albicans CaCi-2 (fluconazole-resistant clinical isolate) + fluconazole, Alamar Blue growth, 48 h; growth inhibition, % (no concentration beside the values); hit rate 0.57% among 300,000;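 active means most replicates above 75%; inconclusive means exactly half above 75%; inactive means most below 75%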;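 further: all wells also contain fluconazole at 8 µg/ml as a sub-toxic cotreatment; 0% = median of DMSO wells and 100% = median of geldanamycin control wells; wells of about 8 µL received 7.5 nL stock; the first replicate is given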
T cruzi inh: blocks replication of Trypanosoma cruzi; T. cruzi beta-gal in NIH3T3, luminescence, 90 h; inhibition, % (no concentration beside the values); hit rate 1.4% among 300,000;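 active means mean inhibition across valid replicates above about 55%, limit read from the data; inconclusive means mean below that limit but half or more replicates reach it; inactive means mean below it, under half of replicates reach it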;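 further: signal also drops with host cell toxicity which is not excluded here; 0% = plate median of DMSO wells and 100% = zero luminescence signal; higher percent means less beta-gal luminescence so fewer parasites; stock transfer was 50 nL into about 50 µL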
Beta cell apopt: beta cell apoptosis inhibition | hit rate 0.8% among 300,000 | INS-1E cytokine-induced death, ATP luminescence, 48 h; percent of positive-control rescue, neutral wells zero | protection from apoptosis, % (no concentration beside the values) | AID 435005;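 active means all replicates at 75% or more, or half of them and the mean; inconclusive means half reach 75% but not the mean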;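 further: 0% = cytokine-treated negative control wells and 100% = positive control rescue; higher means more ATP so stronger rescue from cytokine killing; wells of about 40 µL received 100 nL stock; the first replicate is given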
RanGTP-Impb inh: inhibitors of RanGTP-importin-beta interaction, primary screen, biochemical, FRET, CFP-Ran, YFP-importin-beta, homogeneous. hit rate 1.1% among 300,000. inhibition, % (concentration not given with the values). cell-free CFP-Ran/YFP-importin-beta FRET ratio;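 active means most replicates above 15%; inconclusive means exactly half above 15%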;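 further: 0% = DMSO wells and 100% = Ran loaded with GDP instead of GTP; wells of about 40 µL received 100 nL stock; the first replicate is given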
Bfl-1 A1 inh: inhibitors of the anti-apoptotic protein A1, read as caspase activation; MEF A1-2A-BIM cells, Caspase-Glo 3/7 luminescence, 3 h; percent of clofoctol response, vehicle zero; caspase activation, % (concentration not given with the values); hit rate 0.066% among 330,000;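 active means over half of replicate activation scores above 10%, or exactly half above 10 with the replicate mean above 10; inconclusive means replicate mean below 10 yet half the replicates above 10; inactive means over half of replicates below 10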;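 further: wells of about 30 µL received 50 nL stock; many hits fall short of the cut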
Vif A3G: HIV-1 Vif–A3G interaction blockers – biochemical, TR-FRET, GST-Vif 1-94, biotin-A3G peptide, dose response retest, primary screen (AID 1117319); TR-FRET GST-Vif / biotin-A3G peptide binding; higher % means a stronger effect; test concentration not given here; strong numbers were not always called active; inhibition, %, or IC50 in µM where a hit was titrated; hit rate 0.57% among 260,000;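 active means above the screen mean plus three standard deviations and confirmed in dose response; inconclusive means results disagree or hit not tested in dose response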;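 further: Vif residues 1-94 fused to GST binding biotinylated APOBEC3G peptide 110-148; 0% = full assay without inhibitor and 100% = GST in place of GST-Vif; retest series ran down from 100 µM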
LANA-H2A inh: blocks KSHV LANA binding to histone H2A/H2B | inhibition, % (concentration not given with the values) | hit rate 0.6% among 320,000 | cell-free LANA-H2A/H2B peptide, fluorescence polarization | Q9QR71 | AID 2629; in the data active means inhibition mostly above about 10%, no sharp cut-off; inactive means mostly below about 6.7%;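 further: stock transfer was 7.5 nL into about 10 µL; 0% = median of vehicle wells and 100% = median of positive control wells; one replicate is shown; the record names a cut of 25% in any replicate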
Target sequence (Q9QR71 whole entry, looked up): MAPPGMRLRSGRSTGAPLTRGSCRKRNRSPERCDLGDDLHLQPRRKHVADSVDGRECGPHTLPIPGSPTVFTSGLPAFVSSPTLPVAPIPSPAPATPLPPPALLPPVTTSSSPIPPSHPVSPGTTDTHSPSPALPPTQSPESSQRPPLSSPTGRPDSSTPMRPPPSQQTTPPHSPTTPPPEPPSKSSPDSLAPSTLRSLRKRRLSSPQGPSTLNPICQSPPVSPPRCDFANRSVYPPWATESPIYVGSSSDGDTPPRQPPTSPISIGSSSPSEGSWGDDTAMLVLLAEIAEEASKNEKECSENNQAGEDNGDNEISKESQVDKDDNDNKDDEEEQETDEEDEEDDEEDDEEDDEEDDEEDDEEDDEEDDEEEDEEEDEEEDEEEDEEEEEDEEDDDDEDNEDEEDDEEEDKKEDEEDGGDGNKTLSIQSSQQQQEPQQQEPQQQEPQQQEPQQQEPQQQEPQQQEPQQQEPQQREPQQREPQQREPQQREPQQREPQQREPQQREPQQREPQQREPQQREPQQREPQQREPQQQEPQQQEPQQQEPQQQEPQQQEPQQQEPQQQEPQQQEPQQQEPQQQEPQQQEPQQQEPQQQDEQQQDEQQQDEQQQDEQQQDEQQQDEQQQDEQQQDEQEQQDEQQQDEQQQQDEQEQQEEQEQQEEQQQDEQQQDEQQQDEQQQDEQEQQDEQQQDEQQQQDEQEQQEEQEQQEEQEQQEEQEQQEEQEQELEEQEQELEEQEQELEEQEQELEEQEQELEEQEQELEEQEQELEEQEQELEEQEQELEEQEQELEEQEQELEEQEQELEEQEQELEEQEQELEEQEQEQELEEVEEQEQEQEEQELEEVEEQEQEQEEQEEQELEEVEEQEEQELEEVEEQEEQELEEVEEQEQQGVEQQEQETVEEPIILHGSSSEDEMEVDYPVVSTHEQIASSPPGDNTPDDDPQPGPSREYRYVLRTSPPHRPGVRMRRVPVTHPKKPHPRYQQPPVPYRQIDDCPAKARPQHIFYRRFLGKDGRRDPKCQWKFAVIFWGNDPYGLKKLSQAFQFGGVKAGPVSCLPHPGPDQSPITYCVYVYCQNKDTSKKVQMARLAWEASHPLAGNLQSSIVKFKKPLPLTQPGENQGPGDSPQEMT
Numbers without * were called inactive; ? = inconclusive; nt = no result given.

SMILES | MLL AF4-AF9 inh | Calb FLC | T cruzi inh | Beta cell apopt | RanGTP-Impb inh | Bfl-1 A1 inh | Vif A3G | LANA-H2A inh
COc1ccc(-c2cc3ccccc3oc2=O)cc1NC(=O)c1cccnc1 | nt | 1.0 | 5.9 | 1.7 | 7.8 | 1.0 | 4.5% | 2.6
CCOC(=O)c1c(C)[nH]c(C(=O)NCCc2ccc(OC)c(OC)c2)c1C | 3.9 | -3.0 | -4.3 | -1.3 | 3.6 | -0.8 | nt | 2.6
C=CCOc1ccc(C(=O)CC)cc1OC | -2.9 | -3.4 | -8.9 | 2.0 | -1.0 | 0.2 | -1.6% | -7.5
Cc1ccc(C(=O)CC2(O)C(=O)Nc3ccccc32)s1 (stereo not given) | nt | -26.0 | -1.9 | -28.5 | 5.7 | 0.2 | 2.3% | 1.3
O=C1c2ccccc2NC2CCCCC12 (stereo not given) | -1.6 | -25.2 | -6.1 | -3.0 | -0.9 | -0.6 | 9.2% | -3.9
O=C(Cn1c(-c2ccccc2)noc1=O)Nc1ccc(N2CCCCCC2)cc1 | nt | -7.9 | nt | 10.8 | 0.3 | 0.7 | 31.2% | -0.5
COc1ccc(N(CC(=O)NC2CCCC2)C(=O)c2csnn2)cc1 | nt | ? | -16.6 | -3.3 | 2.2 | 1.2 | -2.9% | -2.0
O=C1/C(=C/c2cccnc2)SC(=S)N1CC1CCCO1 (stereo not given) | 7.7 | ? | 3.7 | -20.0 | 1.0 | -0.4 | 1.4% | -8.4
Cc1ccc(NC(=S)NCc2ccc3[nH]c4c(c3c2)CCCC4)cc1 | -0.2 | -9.2 | -0.6 | -3.9 | 3.6 | nt | 1.3% | -2.9
COc1ccccc1OCCn1c(C(C)O)nc2ccccc21 (stereo not given) | nt | -0.6 | -7.2 | -2.7 | 3.0 | 0.1 | 3.2% | -0.6
CCc1cccc(NC(=O)CCNC(=O)Cn2ccc3ccccc3c2=O)c1 | 1.7 | -22.9 | -13.9 | -9.0 | 0.3 | -1.4 | nt | -3.5
CC(C)(C)NC(=O)CC1C[C@H](C(=O)N2CCOCC2)[C@@]2(CCC3CCCC3)c3[nH]c4ccccc4c3CCN2C1=O (stereo not given in full) | 3.1 | nt | nt | -0.5 | nt | -0.4 | 7.6% | -18.5
Clc1ccc(CSc2nnc(-c3ccncc3)o2)cc1 | nt | -1.8 | 11.1 | nt | 1.7 | -0.4 | -0.9% | -0.1
CN1CCCN(C(=O)c2cc(-c3ccc(Cl)c(Cl)c3Cl)nc3ccccc23)CC1 | 1.0 | ? | 19.8 | -3.1 | -0.3 | -0.3 | -10.9% | 1.1
COC(=O)c1ccc(NC(=O)c2cc(Cl)ccc2OC)cc1 | -1.6 | 14.9 | -1.3 | -13.9 | -5.2 | 0.3 | -5.6% | 4.6
O=C(c1cccs1)N1CCN(c2nc3ccccc3s2)CC1 | -1.5 | -3.9 | 1.2 | 3.2 | 1.6 | 0.4 | 1.0% | 3.0
COc1cc(C2NC(=O)NC(C)=C2C(=O)OC(C)(C)C)ccc1OCC(=O)O (stereo not given) | nt | -13.8 | -10.6 | -6.4 | nt | -0.2 | 0.7% | 2.5
CC(=O)N1CCc2cc(S(=O)(=O)CCC(=O)N3CCN(c4cc(C)ccc4C)CC3)ccc21 | 2.5 | -2.3 | -6.7 | -4.1 | 4.1 | 0.7 | nt | 5.3
COc1ccc(OC)c(N(CC(=O)NC2CCCCCC2)S(=O)(=O)c2ccc(C)cc2)c1 | -0.4 | 0.7 | 26.7 | nt | 3.9 | 0.6 | -6.1% | -0.7
CCc1cc(=O)oc2c(C)c(OC(C)C(=O)NCC3CCC(C(=O)O)CC3)ccc12 (stereo not given) | 0.6 | 0.3 | -6.9 | -0.6 | 0.7 | 0.8 | nt | 0.3
O=S(=O)(Cc1ccccc1)NCCc1cccc(Cl)c1 | -4.8 | 1.0 | -0.7 | nt | -1.0 | 0.5 | nt | -1.0
CCn1nnc(NC(=O)c2cc3ccccc3o2)n1 | nt | ? | -9.3 | -0.3 | -0.8 | 0.3 | 16.2% | -6.2
COC(=O)c1ccc(OC(=O)c2ccco2)cc1 | nt | -16.5 | -5.4 | -1.6 | 2.2 | -0.1 | -6.3% | 1.4
Cc1cc(NS(=O)(=O)c2ccc(Nc3nc(-c4ccc(O)cc4)cs3)cc2)no1 | nt | 3.3 | -26.5 | -5.7 | -0.5 | -0.2 | 8.2% | -0.8
COc1ccc(-n2ncc3c2CC(C)(C)CC3NC(=O)Cc2nonc2C)cc1 (stereo not given) | -3.1 | -15.0 | -3.4 | 2.5 | -3.6 | ? | nt | 3.7
CCC(=O)N1CCN(c2ccc(Cl)cc2NC(=S)NC(=O)c2ccco2)CC1 | -2.3 | 41.5 | 14.2 | -8.7 | -1.8 | -0.7 | nt | -3.5
COc1ccc(C2SCC(=O)N2c2ccccc2)cc1 (stereo not given) | -0.5 | 13.0 | -8.2 | -2.3 | 0.1 | 0.9 | -4.6% | -0.7
COc1ccc(NC(=O)Nc2c(C)noc2-c2ccccc2)cc1 | -2.6 | 4.7 | 3.4 | -4.2 | 3.9 | 0.4 | -8.6% | 4.8
CC1CCCN(c2ncnc3c2cnn3-c2ccccc2)C1 (stereo not given) | -10.6 | -5.5 | 5.9 | 6.2 | -2.1 | -5.4 | nt | -0.3
CC(Cc1ccco1)NC(=O)c1ccc(C(F)(F)F)cc1 (stereo not given) | 1.4 | -9.3 | -10.5 | -6.3 | 2.0 | -3.5 | nt | -1.1
O=S1(=O)C=C(SCc2ccccc2)Nc2ccccc21 | nt | ? | 8.1 | 0.7 | ? | -0.6 | 0.4% | -5.4
CCOc1ccc(NC(=O)NCc2cccnc2)cc1 | -2.8 | 6.0 | -17.5 | -2.8 | 3.7 | 0.6 | 20.3% | 0.1
CC1CCN(c2ccc3nnc(CCC(=O)Nc4ccc(F)c(F)c4)n3n2)CC1 | -2.2 | 1.8 | -2.1 | 2.7 | 0.9 | -1.7 | nt | 2.2
CCC[C@@H](O)c1cc2cc(OC)c(OC)cc2c(=O)o1 | -0.9 | nt | nt | -2.9 | nt | 0.6 | nt | 0.3
CC(C)c1onc(C(=O)N2CCC(C(N)=O)CC2)c1[N+](=O)[O-] | 2.4 | -9.9 | -1.7 | -3.2 | -2.2 | 0.0 | 26.8% | -5.0
Cc1ccc(SC(=O)c2c(C)noc2-c2cc(C)on2)cc1 | 0.3 | -7.3 | -2.5 | -32.7 | 5.9 | -0.7 | -11.3% | -0.2
COc1ccc2c(c1)CCc1cn[nH]c1-2 | 0.3 | 28.3 | -3.6 | -16.8 | 2.4 | -1.7 | -2.2% | 0.2
Cc1ccnc(NC(=O)c2ccoc2C)c1 | nt | -1.5 | -14.1 | -7.0 | -0.8 | -5.7 | 7.2% | -2.8
Cc1cccc(Cn2ccc(-c3ccc(Cl)cc3)c(C#N)c2=O)c1 | nt | -2.2 | nt | -4.7 | 26.8 | -0.6 | ? | 1.4
CCC1=NN(C(=O)Cc2ccc([N+](=O)[O-])cc2)C(O)(c2ccc(Br)cc2)C1 (stereo not given) | nt | -4.5 | -1.5 | -1.7 | 3.4 | 1.1 | -6.8% | 3.7
O=C(NCCCN1CCN(c2ccc(F)cc2)CC1)Nc1ccc([N+](=O)[O-])cc1 | 25.7* | -10.9 | 10.0 | 2.9 | 2.0 | -0.9 | 3.2% | 0.8
COCCn1nnnc1C(c1cc2cc(C)ccc2[nH]c1=O)N1CCCCCC1 (stereo not given) | nt | -4.9 | -8.7 | -3.6 | 3.3 | -0.1 | 15.9% | -3.5
CCOc1cccc(/C=N/NC(=O)c2ccc3c(c2)OCCO3)c1O | -1.9 | 1.0 | -20.8 | 91.6* | -3.3 | -3.6 | -4.3% | 5.0
COc1ccc(N2C(=O)C3CCCN3C2c2ccc(Cl)cc2)cc1 (stereo not given) | 1.6 | -2.3 | -9.1 | -3.2 | -1.3 | -0.4 | 0.2% | -2.4
Clc1ccc(C[n+]2cc(-c3ccccc3)n3c2CCC3)cc1 | -2.3 | 0.9 | 27.8 | -17.9 | ? | -0.3 | -0.6% | 1.4
CCCCNS(=O)(=O)c1ccc2nc(-c3cccnc3)cc(C(=O)NCCCOC)c2c1 | -0.9 | 19.4 | 8.9 | -0.3 | 0.9 | -0.1 | 0.2% | 1.8
Cc1cccc2cc(CN(C(=S)NCC(C)C)C3CCCC3)c(=O)[nH]c12 | 0.9 | -32.1 | 5.9 | nt | 0.3 | 0.3 | -8.3% | -6.3
NC(=O)C1(N2CCCCC2)CCN(C(=S)Nc2ccc(S(N)(=O)=O)cc2)CC1 | -6.6 | -8.2 | -1.1 | -10.6 | 1.5 | -0.1 | nt | -2.7
CC(OC(=O)c1ccc(NS(=O)(=O)c2ccc3[nH]c(=O)[nH]c3c2)cc1)C(N)=O (stereo not given) | -0.3 | 1.7 | -10.4 | -11.8 | 1.6 | -0.2 | nt | 5.1
CC(C)(C)c1ccc(C(=O)NCc2nnc(SCC(=O)N3CCCc4ccccc43)n2-c2ccccc2)cc1 | -8.3 | 3.0 | -4.6 | 2.3 | 4.6 | 0.0 | nt | 2.1
C=CCOC(=O)COc1ccc2c(C)c(CC)c(=O)oc2c1 | nt | 9.4 | -5.5 | -0.5 | 1.3 | nt | 0.2% | -0.4
O=C(O)[C@@H]1CSC2c3ccccc3C(=O)N21 (stereo not given in full) | -2.3 | -7.2 | 4.8 | -7.5 | 8.0 | 0.3 | -1.1% | 3.4
CCOC(=O)c1c(NC(=O)C(C)Sc2cn(C)c3ccccc23)sc2c1CCC2 (stereo not given) | -1.4 | 0.4 | 0.5 | -5.4 | 3.7 | 0.5 | 5.9% | 4.1
NS(=O)(=O)c1ccc(CCn2c(=S)[nH]c3ccc(F)cc3c2=O)cc1 | -4.4 | 17.5 | 0.1 | -5.2 | ? | -0.1 | -244.3% | -1.0
Cc1ccc[n+](CC(=O)Nc2cccc(Cl)c2)c1 | 0.9 | -8.8 | 1.6 | nt | ? | 0.1 | nt | -0.9
C/C(=N\O)c1ccc2c3c([nH]c2c1)CCCC3 | nt | 15.0 | -18.0 | -2.3 | -1.0 | 0.3 | 5.3% | -0.5
COc1ccc(CCNC(=O)[C@H](C)NC(=O)N2CCn3c2nc2ccccc23)cc1OC | -0.8 | 5.7 | -5.0 | -3.3 | 2.6 | 0.1 | nt | 2.0
COc1ccc(-c2cc(C(=O)OC3CCOC3=O)c3ccccc3n2)cc1 (stereo not given) | nt | 16.3 | -23.6 | 5.3 | 1.3 | -0.8 | 1.7% | 1.0
CCNC(=S)NNC(=O)CCn1cc(C)cn1 | nt | 5.2 | -15.3 | nt | 1.1 | 1.2 | -5.2% | -4.9
CCN(CC)CCNC(=O)C(=O)Nc1cc2c3c(c1)CC(=O)N3CCC2 | -5.5 | -8.3 | 0.0 | -2.1 | -0.3 | 0.2 | nt | 4.8
Cc1ccc(Cl)cc1N1CCN(Cc2cc3c(cc2O)CCC3)CC1 | nt | -5.7 | 57.8* | 2.4 | 2.2 | -0.3 | 23.9% | 1.8
Cc1c(Nc2nc3ccccc3nc2NS(=O)(=O)c2ccccc2)c(=O)n(-c2ccccc2)n1C | 1.5 | -2.8 | -4.9 | -4.0 | -0.3 | 2.0 | ? | 2.8
COC(=O)c1cc2occc2n1Cc1nc(-c2ccccc2Cl)oc1C | -1.3 | -2.9 | 4.1 | -2.6 | -0.5 | 0.2 | 1.2% | 4.9

Random draw from the library (roughly 4.3% active in at least one column).
